# Mtb bLac sens: beta-lactam sensitization of Mtb H37Rv | 330,000 tested, 0.27% active | AID 434955 | inhibition, % at 25 µM | M. tuberculosis H37Rv growth with meropenem, percent inhibition; hits of this screen are not shown here;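 active means about 74% or more and at least 40 points above the plate without the antibiotic, then above 30% in a dose series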;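 further: growth measured after seven days incubation then overnight dye step; 0% = bacteria only wells and 100% = bacteria with antibiotic; twin plates without the antibiotic show which effects depend on it; some results filed as inactive read as strong as hits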
# Starred values were filed as active, the others as inactive. These rows are one share of the data. The share of hits here may be higher or lower than overall.
# Preview:
compound	Mtb bLac sens
CCOc1ccc2oc(C(=O)OCC(=O)NCc3ccc(OC)cc3)c(C)c2c1	-2.0
CN(C)c1ccc(/C=C(\NC(=O)c2ccccc2)C(=O)NCCCn2ccnc2)cc1	4.4
CCn1c(SCC(=O)c2c(N)n(C3CC3)c(=O)[nH]c2=O)nnc1-c1ccoc1C	-5.2
CCCCN1C(=O)C(=O)N(CC(=O)N2CCc3ccccc32)C1=O	-4.1
CN(CCc1ccccc1)C(=O)c1cccc(NC(=O)Cc2cccc([N+](=O)[O-])c2)c1	3.1

# All compounds of this part, repeating the preview:
compound	Mtb bLac sens
CCOc1ccc2oc(C(=O)OCC(=O)NCc3ccc(OC)cc3)c(C)c2c1	-2.0
CN(C)c1ccc(/C=C(\NC(=O)c2ccccc2)C(=O)NCCCn2ccnc2)cc1	4.4
CCn1c(SCC(=O)c2c(N)n(C3CC3)c(=O)[nH]c2=O)nnc1-c1ccoc1C	-5.2
CCCCN1C(=O)C(=O)N(CC(=O)N2CCc3ccccc32)C1=O	-4.1
CN(CCc1ccccc1)C(=O)c1cccc(NC(=O)Cc2cccc([N+](=O)[O-])c2)c1	3.1
C[C@]12CCC3C(CC[C@H]4C[C@@H](O)CC[C@]34C)C1CC[C@@H]2OC(=O)[C@H](N)CCCCN (stereo partly drawn)	13.2
CC(C)n1nc(C(=O)NNC(=O)c2ccc(OC(F)F)cc2)c2ccccc2c1=O	-2.6
CNC(=O)c1[nH]cnc1C(=O)Nc1cccc(Cl)c1	-1.8
O=C(CSCc1ccccc1)N1CCN(S(=O)(=O)c2ccc(F)cc2)CC1	0.1
O=C1OC[C@H]2CCCN2C(=O)[C@@H](CC(=O)N(CCO)Cc2ccccc2)C/C=C\C[C@H]1Cc1ccc(F)cc1	-0.7
Cc1cc(C)c(C)c(S(=O)(=O)Nc2cccc(S(=O)(=O)Nc3ccccc3C(=O)O)c2)c1C	-10.5
C#CCOCCOCCOCCNc1nc(N2CCN(C(=O)CCCCCCCCCCNC(=O)Cn3cc(C[C@@H](C)O)nn3)CC2)nc(N2CCN(C(=O)CCCCCCCCCCNC(=O)Cn3cc(C[C@@H](C)O)nn3)CC2)n1	-6.0
CN(c1ccccc1)S(=O)(=O)c1cc(C(=O)N2CCN(c3ncccn3)CC2)ccc1Cl	-0.1
O=C(COC(=O)c1n[nH]c2ccccc12)Nc1ccccc1Br	2.8
COc1cccc(C(=O)OCC(=O)Nc2cc(C)on2)c1OC	3.4
CCc1ccccc1N(C(=O)c1ccco1)C(C(=O)NC1CCCC1)c1cccnc1 (stereo not drawn)	-5.4
Cc1ccc(OCc2ccccc2Br)c([N+](=O)[O-])n1	1.8
O=C(CN1C(=O)NC2(CCc3ccccc32)C1=O)c1cccs1 (stereo not drawn)	-11.3
COc1ccc(NC(=O)CSc2ccc([N+](=O)[O-])cc2)cc1S(=O)(=O)N1CCOCC1	-3.6
CN(C)S(=O)(=O)c1cccc(NC(=O)COC(=O)c2ccc3ccccc3n2)c1	-0.8
CCOc1ccc(S(=O)(=O)N2CCOCC2)cc1NC(=O)CSCc1ccc(C)cc1	-0.9
CCC(=O)c1ccc(OCC(O)CN2CCc3ccccc3C2)cc1 (stereo not drawn)	1.2
Cc1cccc(NC(=O)CN2CCN(C(=O)c3cncn3-c3ccc(F)cc3)CC2)c1C	1.0
Cc1c(C(=O)OCC(=O)NCc2ccco2)cccc1[N+](=O)[O-]	1.9
CCOc1ccc(/C=N/NC(=O)c2ccccc2C)cc1CN1CC2CC(C1)c1cccc(=O)n1C2 (stereo not drawn)	-1.3
CCN(Cc1ccccc1)C(=O)c1c(-c2ccccc2Cl)noc1C	-2.5
COc1ccc2oc(C(=O)N3CCN(C/C=C/c4ccccc4)CC3)c(C)c2c1	-8.4
COc1cc(OC)cc(C(=O)NC(C(=O)N2CCC2)C(C)C)c1 (stereo not drawn)	1.4
CCOC(=O)C1=C(C)NC(C)=C(C(=O)OCC)C1C(=O)OCC(=O)N1CCCCC1C (stereo not drawn)	-2.8
COc1ccc(CN(C)C(=O)c2ccc(Cl)c(S(=O)(=O)NCc3cccnc3)c2)cc1F	-15.5
CC(C)CCn1c(N2CCCC2)nc2c1c(=O)[nH]c(=O)n2C	-8.6
CCC(C)c1ccccc1O (stereo not drawn)	-0.7
O=C(CCN=C1NS(=O)(=O)c2ccccc21)NCc1ccccc1F	2.8
Cc1ccc(OCC(=O)Nc2nc(C)c(Cl)cc2Cl)c([N+](=O)[O-])n1	-0.5
Cc1cc(C(C)(C)C)cc(C)c1COC(=O)CN1C(=O)NC2(CCCC2)C1=O	-8.4
CS(=O)(=O)c1ccc(N2CCN(S(=O)(=O)c3cccs3)CC2)c([N+](=O)[O-])c1	2.6
CC(C)(C)OC(=O)CNC(=O)c1[nH]cnc1C(=O)N[C@@H](CCCCN)C(=O)OC(C)(C)C	-6.8
CNc1snc(C)c1C(=O)OCC(=O)NCc1ccccc1OC	-5.2
CC(=O)NCCc1ccc(C(=O)COC(=O)c2cc(C)oc2C)cc1	2.9
O=C(COC(=O)COc1ccccc1)NC12CC3CC(CC(C3)C1)C2	-1.2
CN1CCN(c2nc3ccccc3nc2NS(=O)(=O)c2ccc(Br)cc2)CC1	-7.0
COc1ccc(C(=O)Nc2cccc(S(=O)(=O)N(C)C)c2)cc1S(=O)(=O)N1CCOCC1	-6.4
COc1cc(C(=O)NNC(=O)COc2ccccc2Cl)ccc1OCC(=O)N1CCOCC1	-4.8
CCN(C(=O)COC(=O)CSc1ccc(F)cc1)c1c(N)n(Cc2ccccc2)c(=O)[nH]c1=O	-6.0
CN(CCOc1ccc(Cl)cc1)C(=O)Cc1ccc(S(=O)(=O)N2CCOCC2)s1	-5.5
Cc1cccc(N2CCN(C(=O)c3ccc4[nH]c(C)c(C)c4c3)CC2)c1C	-7.1
CS(=O)(=O)c1ccc(Cl)c(NC(=O)C2CCCCN2S(=O)(=O)c2ccccc2)c1 (stereo not drawn)	-8.8
Cc1ccc(NS(=O)(=O)c2cccc(C(=O)N3CCN(c4ncccn4)CC3)c2)cc1	-7.0
CC[C@@H](C)[C@@H]1CN([C@@H](C)CN2CCC[C@H]2CN2C(N)=NC[C@H]2CC(C)C)C(=N)N1CCCC1CCCC1	68.3
O=C(NC1CCCCC1)c1cc(S(=O)(=O)N2CCCCC2)ccc1N1CCOCC1	-3.2
Nc1nc2ccc(C(=O)Nc3ccc(N4CCOCC4)cc3)cc2s1	2.7
CC(=O)N/C(=C\c1ccccc1)C(=O)OCC(=O)c1c(N)n(C)c(=O)n(C)c1=O	-3.1
O=C(NCC(c1ccco1)N1CCCC1)c1ccc(Cl)c(S(=O)(=O)N2CCc3ccccc32)c1 (stereo not drawn)	13.3
CCOc1ncccc1C(=O)OCC(=O)Nc1cc(C(C)(C)C)ccc1OC	2.8
C#CCOCCOCCOCCNc1nc(N2CCN(C(=O)CCCCCCCCCCNC(=O)Cn3cc(CCCCCN)nn3)CC2)nc(N2CCN(C(=O)CCCCCCCCCCNC(=O)[C@H]([C@@H](C)CC)n3cc(CCCCCN)nn3)CC2)n1	-7.8
CC(=O)C1=C(O)C(=O)N(c2cccc(Br)c2)C1c1ccccc1Cl (stereo not drawn)	-4.7
Cn1c(SCC(=O)Nc2ccc3c(c2)CCC3)nnc1C1CC1	-5.1
CC(=O)Nc1ccc(NC(=O)C(C)Sc2nnc(-c3ccc4c(c3)OCO4)o2)cc1 (stereo not drawn)	0.2
COc1ccc(NC(=O)CNC(=O)C2CCCCC2)cc1OC	-0.6
CCOc1ccccc1N1CCN(C(=O)c2ccc3nc(N)sc3c2)CC1	2.1

# The list continues.
compound	Mtb bLac sens
O=C(CN1CCN(c2cccc(C(F)(F)F)c2)CC1)N(C1CCCC1)C1CCS(=O)(=O)C1 (stereo not drawn)	-1.3
CCOc1cc(N2CCOCC2)c(OCC)cc1NC(=O)CSc1nc(N)cc(=O)[nH]1	-5.1
Cc1nc(Nc2cc(F)ccc2C)c2nnn(Cc3ccccc3)c2n1	-0.8
O=S(=O)(c1ccc(Br)s1)N1CCN(CCc2ccccc2)CC1	-1.1
Cc1ccc(NC(=O)Nc2ccccc2F)cc1S(=O)(=O)N1CCOCC1	8.1
CN(Cc1ccccc1N1CCCC1)C(=O)c1cc2cc(Cl)ccc2o1	11.7
COc1ccc([C@H]2CC(=O)C=C(c3ccc(F)cc3OCc3ccccc3)C2)cc1OC	12.5
OC[C@H]1NC[C@@H](O)[C@@H]1O	1.2
CCC/C(=C1/c2ccccc2C(=O)N1c1ccccc1)c1ccc2c(c1)OCCO2	16.8
O=C(CNC(=O)c1ccco1)Nc1ccc(N2CCCCCC2)cc1	4.3
COc1ccc(NC(=O)CN(C)CC(=O)Nc2sc3c(c2C#N)CCC3)cc1	-5.5
COc1ccc(NC(=O)c2cccc3ccccc23)cc1	-11.2
Cc1ccc(S(=O)(=O)NCCC(=O)NNC(=O)COc2ccc(Br)cc2)cc1C	-5.1
CCC(CC)c1nnc(NC(=O)COc2ccc3c(c2)OCO3)s1	2.6
O=C(COC(=O)c1ccc(O)cc1)Nc1cccc(S(=O)(=O)NC2=NCCC2)c1	-14.2
O=C(Cc1ccc(Cl)cc1)NNC(=O)c1ccco1	3.5
O=C(NCC1CCCO1)c1ccc(Br)c(S(=O)(=O)N2CCOCC2)c1 (stereo not drawn)	4.8
COc1cccc(C2=CC(=O)C[C@H](c3ccc(F)cc3)C2)c1OC	2.7
CCN(CC)S(=O)(=O)c1ccc(NC(=O)COc2cccc(-n3cnnn3)c2)cc1	-2.9
C[C@@]12C(=O)Nc3cc(Cl)ccc3C(=O)N1[C@H]1c3cc(Cl)ccc3OC[C@@H]1[C@@H]2c1ccccc1	16.2
Cc1ccc(S(=O)(=O)N2CCOCC2)cc1C(=O)N1CC(C)CC(C)C1 (stereo not drawn)	3.1
COc1ccc(NC(=O)CSc2nnc(-c3ccc(F)cc3)o2)cn1	-6.1
COc1ccc(CNC(=O)COC(=O)c2cccs2)cc1	-3.6
O=C(Nc1cccc(S(=O)(=O)N2CCCCCC2)c1)c1ccc(Cl)nc1	1.2
CCCn1nc(C(=O)N2CCc3ccccc32)c2ccccc2c1=O	-0.9
C[C@]12CC[C@H](O)CC1=CCC1C2CC[C@]2(C)C(=O)[C@H](Br)CC12 (stereo partly drawn)	64.3
O=C(Nc1nccs1)c1nc[nH]c1C(=O)N1CCc2ccccc2C1	-7.0
O=C(O)C(Cc1ccc(F)cc1)c1ccccc1 (stereo not drawn)	-8.2
O=C(COC(=O)Cc1ccc(Cl)cc1)NCc1ccco1	-0.1
CCN(C(=O)CSc1nnc(C(C)N(C)C)n1-c1ccc(F)cc1)C1CCS(=O)(=O)C1 (stereo not drawn)	-3.9
O=C(NOCc1ccccc1)c1ccc(Cl)cc1Cl	6.5
CC(C)C(NC(=O)c1ccc(F)cc1)C(=O)N1CCN(c2ccccn2)CC1 (stereo not drawn)	-5.3
COc1ccc(NC(=O)Nc2ccc3c(c2)C(=O)N([C@H](C)CO)C[C@H](C)[C@@H](CN(C)C(=O)Nc2ccc4c(c2)OCO4)O3)cc1	6.2
CN(C)C1=NCCN1CC1CCCC1	-13.5
CCNC(=S)/C(=C(/[O-])c1ccc([N+](=O)[O-])cc1)[n+]1ccccc1	6.3
COc1ccc(-c2cc(C(=O)OCC(=O)N3CCCCC3)c3ccccc3n2)cc1OC	2.8
COc1cc(NC(=O)c2cc(-c3ccccc3)nc3c2cnn3C(C)C)cc(OC)c1OC	-5.7
COc1ccccc1NS(=O)(=O)c1cccc(C(=O)N2CCCC2)c1	-2.4
c1nc(NCc2ccc3c(c2)OCO3)c2cc(-c3ccc4c(c3)OCCO4)ccc2n1	87.1
Cc1cccc(C(=O)NCC(=O)N2CCN(S(=O)(=O)/C=C/c3ccccc3)CC2)c1	-6.4
COc1ccc(CC(=O)Nc2ccc(S(=O)(=O)N3CCOCC3)cc2)cc1	0.3
COc1cc(/C=C/C(=O)OCC(=O)NC(=O)NC2CCCCC2C)ccc1OC(F)F (stereo not drawn)	-2.0
O=C(OCC(=O)N1CCCC1)c1c[nH]c2ccccc12	-1.5
Cc1nn(CC(=O)Nc2cc(S(=O)(=O)N3CCOCC3)ccc2Cl)c(C)c1[N+](=O)[O-]	-1.2
Cc1ccc(S(=O)(=O)N2[C@@H](c3ccc(Br)cc3)C(C(=O)O)=CC[C@H]2c2ccc(C(C)C)cc2)cc1	5.2
Cc1cc(C)cc(C(=O)OCC(=O)N2CCCCCC2)c1	5.0
O=C(NCC1CCCO1)c1cccc(S(=O)(=O)Nc2ccc(SC(F)F)cc2)c1 (stereo not drawn)	-5.3
Cc1ccc(C(=O)NC(=S)Nc2ccc(CN3CCOCC3)cc2)cc1	0.1
NC1(C#Cc2ccc3c(=O)c4ccccc4sc3c2)CCCCC1	90.1
Cc1cc(C)nc(OC(C(=O)O)C(OCc2ccccc2)(c2ccccc2)c2ccccc2)n1 (stereo not drawn)	-4.5
CC(C)(C)OC(=O)NCc1ccc(CNC(=O)c2ncn(Cc3ccccc3)c2C(=O)NCc2ccc(CNC(=O)OC(C)(C)C)cc2)cc1	4.4
N#Cc1ccc(NC(=O)CSc2nc3[nH]c(=O)cc(O)c3s2)cc1	-6.7
Cc1ccc(C2(c3ccccc3)NC(=O)N(CC(=O)N(C)C3CCS(=O)(=O)C3)C2=O)cc1C (stereo not drawn)	-0.9
O=C(Nc1cc(C(F)(F)F)ccc1N1CCCC1)C1CCCO1 (stereo not drawn)	3.5
O=S(=O)(N(Cc1ccccc1)[C@@H](CO)Cc1ccccc1)N(Cc1ccccc1)[C@@H](CO)Cc1ccccc1	2.6
O=C(CCCN=C1NS(=O)(=O)c2ccccc21)Nc1ccc(Cl)cc1	-1.4
